rRNA inh HTS: reduced GFP signal of wild-type E. coli, primary screen, bacterial rRNA inhibitor project, GFP/RFP fluorescence, OD600, single point | AID 720706, 2013 | GFP signal change (wild-type ribosome), % (no concentration beside the values) | hit rate 1.6% among 350,000 | E. coli WT GFP vs humanized-ribosome RFP mutants, 24 h; stronger effect = lower value; DMSO median 0, no signal -100;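 active = significant combined selectivity score with lowered wild-type GFP, culture density cut under 30%, mutant RFP and density less affected; inactive = any of these conditions unmet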; also: one replicate is shown; some compounds called inactive have numbers as strong as hits
rRNA inh HTS OD600: recorded beside rRNA inh HTS, whose call it bears; OD600 change, %; measured here: OD600 growth;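 optical density of the mix in the first replicate; 0 = DMSO median and -100 = no signal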
rRNA inh HTS RFP: recorded beside rRNA inh HTS, whose call it bears; RFP signal change, %; measured here: RFP humanized mutant strains;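 first replicate; 0 = DMSO median and -100 = no signal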
An asterisk follows results filed as active; & = joins results of further samples. Not all compounds are listed (hit frequency here may not be typical).

rRNA inh HTS | rRNA inh HTS OD600 | rRNA inh HTS RFP | canonical_smiles
-9 | -50 | 33 | Cc1cccc(-c2ccc([C@@H]3[C@@H](CO)N4C(=O)CN(C(=O)NC5CCCCC5)C[C@H]34)cc2)c1
-7 | -28 | -9.3 | COCOc1cccc(CN2CCC2(C)C(=O)Nc2ccc(C)cc2)c1 (stereo unspecified)
0 | 2 | -2.9 | C[C@@H]1CCCCO[C@@H](CN(C)C(=O)CCCN(C)C)[C@H](C)CN([C@@H](C)CO)C(=O)c2cc(NC(=O)c3ccccc3)ccc2O1
-6 | -41 | 29 | COc1ccc(NC(=O)Nc2ccc3c(c2)CC(=O)N([C@@H](C)CO)C[C@@H](C)[C@H](CN(C)CC2CCCCC2)O3)cc1
0 | -8 | -1.0 | CC(C)CC#Cc1cnc2c(c1)C(=O)N([C@@H](C)CO)C[C@@H](C)[C@H](CN(C)S(=O)(=O)c1cccs1)O2
7 | -6 | -1.0 | O=C(C[C@H]1CC[C@H]2[C@@H](COC[C@@H](O)CN2S(=O)(=O)c2cccc(F)c2)O1)NC1CCC1
1 | 1 | -3.3 | C[C@H]1CN([C@@H](C)CO)C(=O)c2cc(NS(=O)(=O)c3ccc(Cl)cc3)ccc2O[C@@H]1CN(C)C
-9 | -1 | 7.4 | CC(C)(C)NC(=O)C(c1cc2ccccc2o1)n1c(=O)c(-c2ccco2)nc2ccccc21 (stereo unspecified)
-3 | -11 | -1.9 | C[C@H]1CCCCO[C@H](CN(C)C(=O)CCC(F)(F)F)[C@@H](C)CN([C@@H](C)CO)C(=O)c2cc(NC(=O)c3ccccc3)ccc2O1
-7 | -7 | -0.3 | CCC(=O)N(C)C[C@H]1Oc2cc(-c3ccc(F)cc3)ccc2S(=O)(=O)N([C@H](C)CO)C[C@H]1C
-4 | 11 | -0.3 | O=C(C[C@H]1C[C@@H]2c3cc(NC(=O)C4CCC4)ccc3O[C@@H]2[C@@H](CO)O1)NCc1ccccc1F
-2&-5 | -6&4 | -1.2&2.8 | O=C(NCC[C@@H]1CC[C@@H](NC(=O)c2cccnc2)[C@H](CO)O1)Nc1ccc(Cl)cc1
4 | 10 | -3.7 | CO[C@@H]1CN(C)C(=O)c2ccc(NS(=O)(=O)c3cn(C)cn3)cc2OC[C@@H](C)N(CC2CC2)C[C@H]1C
13 | 15 | -0.4 | CCOC(=O)C1=CC[C@@H](c2ccccc2)N(S(=O)(=O)c2ccc(C)cc2)[C@H]1c1ccc(C#N)cc1
4 | 12 | -1.9 | CC(C)C#Cc1ccc2c(c1)O[C@H](CN(C)C(=O)c1cccnc1)[C@H](C)CN([C@@H](C)CO)S2(=O)=O
4 | 0 | -2.5 | O=C(O)C[C@@H]1C[C@H]2c3cc(NC(=O)c4ccc5c(c4)OCO5)ccc3O[C@H]2[C@@H](CO)O1
4 | 3 | -2.2 | O=C1NC(Cc2ccc(O)cc2)c2nc3cc(Cl)ccc3c(=O)n2-c2ncccc21 (stereo unspecified)
1 | 3 | -1.7 | Cc1cc2c(cc1C)N1C(=O)c3cc4ccccc4cc3NC(=O)C1C(=O)N2 (stereo unspecified)
-1 | -1 | 0.2 | C[C@H]1CN([C@@H](C)CO)C(=O)Cc2cc(NC(=O)Nc3ccc4c(c3)OCO4)ccc2O[C@@H]1CN(C)S(=O)(=O)c1ccccc1
-1 | -1 | 3.2 | CCCCNC(=O)C[C@@H]1C[C@@]2(C(=O)OC)CC(C)(C)CC=C2N(Cc2ccc3c(c2)OCO3)C1=O
-31 | -67 | -3.8 | COc1cccc(C(C)(O)c2nc(-c3ccc(OC)c(OC)c3)cs2)c1 (stereo unspecified)
0 | 2 | -0.1 | Cc1noc(C)c1NC(=O)Nc1ccc2c(c1)CC(=O)N([C@H](C)CO)C[C@@H](C)[C@@H](CN(C)S(C)(=O)=O)O2
2 | 6 | -0.3 | C[C@@H]1CCCCO[C@H](CN(C)C)[C@@H](C)CN([C@H](C)CO)C(=O)c2cc(NC(=O)Cc3ccccc3)ccc2O1
2 | 1 | -1.5 | CCS(=O)(=O)Nc1ccc2c(c1)C(=O)N(C)C[C@@H](OC)[C@@H](C)CN(Cc1nccs1)[C@H](C)CO2
0 | 1 | -0.3 | CO[C@H]1CN(C)C(=O)c2cc(NC(=O)Nc3c(C)noc3C)ccc2OC[C@H](C)NC[C@@H]1C
0 | -5 | -0.8 | Cc1cc(C(=O)Nc2ccc3c(c2)C(=O)N(C)[C@H]2CC[C@H](CC(=O)NCC(F)(F)F)O[C@@H]2CO3)no1
-21 | -58 | 23 | C[C@@H]1CN([C@@H](C)CO)C(=O)c2cc(NS(=O)(=O)c3cccs3)ccc2O[C@@H]1CN(C)Cc1ccc(Cl)c(Cl)c1
-2 | 15 | -2.3 | C[C@H]1CN([C@@H](C)CO)S(=O)(=O)c2ccc(C#CC3CCCC3)cc2O[C@@H]1CN(C)C(=O)c1cccc(F)c1
-4 | -3 | 1.6 | C[C@@H]1CN([C@H](C)CO)C(=O)Cc2cc(NC(=O)NC3CCCCC3)ccc2O[C@@H]1CN(C)S(=O)(=O)c1cccs1
5 | 2 | 2.4 | O=S(=O)(c1ccccc1F)N1CCCCN2[C@H](CO)[C@@H](c3ccc(-c4cncnc4)cc3)[C@H]2C1
5&0 | 19&1 | -2.9&0.1 | C[C@@H]1CN([C@H](C)CO)C(=O)CCCn2nncc2CO[C@@H]1CN(C)C(=O)c1ccc(N2CCN(C)CC2)cc1
-11 | -2 | -5.6 | CCN(CC)C(=O)c1cccc(-c2csc(C(C)(O)c3ccncc3)n2)c1 (stereo unspecified)
0 | 1 | 0.0 | CCCC(=O)Nc1ccc2c(c1)OC[C@@H](C)N(CCc1ccccc1)C[C@@H](C)[C@@H](OC)CN(C)C2=O
-1 | -6 | 9.3 | C[C@@H]1CN([C@@H](C)CO)C(=O)c2cc(/C=C/c3ccccc3)cnc2O[C@@H]1CN(C)C(=O)c1cccc(F)c1
-1 | -9 | -4.7 | O=C(C[C@H]1CC[C@@H]2[C@H](COC[C@H](O)CN2S(=O)(=O)c2ccccc2Cl)O1)NCc1ccccc1Cl
-1 | -1 | -4.9 | CCCC#Cc1ccc2c(c1)O[C@H](CN(C)S(=O)(=O)c1cccc(F)c1)[C@@H](C)CN([C@@H](C)CO)S2(=O)=O
4 | 12 | -0.4 | CCC(=O)N1CCC(C)(C(=O)NCc2cccc(OC)c2)C1 (stereo unspecified)
15 | 19 | 0.8 | O=C1CSC(c2cccs2)N1c1nncs1 (stereo unspecified)
3 | 11 | -1.8 | Cc1noc(C)c1NC(=O)Nc1ccc2c(c1)C(=O)N([C@@H](C)CO)C[C@H](C)[C@@H](CN(C)C)O2
3 | 16 | -1.5 | CC(C)NC(=O)N(C)C[C@H]1Oc2ccc(NC(=O)Cn3cnnn3)cc2CC(=O)N([C@H](C)CO)C[C@H]1C
-10 | -21 | 6.6 | CO[C@@H]1CN(C)C(=O)c2ccc(NC(C)=O)cc2OC[C@@H](C)N(Cc2cc(F)ccc2F)C[C@@H]1C
0 | 8 | -0.7 | C/C=C/c1ccc([C@H]2[C@H](CO)N[C@@H]2CN(CC)C(=O)c2cccnc2)cc1
1 | -5 | 0.3 | CO[C@@H]1CN(C)C(=O)c2cc(NC(=O)c3cc(C)on3)ccc2OC[C@H](C)NC[C@@H]1C
-6 | 15 | 9.8 | CC(C)Nc1nc(Nc2ccc(C(N)=O)cc2)c2sccc2n1
-1 | 14 | -2.4 | C[C@@H]1CCCCO[C@@H](CN(C)S(=O)(=O)c2cn(C)cn2)[C@@H](C)CN([C@H](C)CO)C(=O)c2cc(NC(=O)Nc3ccccc3)ccc2O1
6 | 12 | 0.3 | Cc1cc(NC(=O)COc2ccc3c(C)c(C)c(=O)oc3c2)no1
6 | 9 | -2.4 | COCC#Cc1cnc2c(c1)C(=O)N([C@@H](C)CO)C[C@H](C)[C@H](CN(C)C(=O)Nc1ccccc1OC)O2
1 | 4 | -3.2 | CC(C)Nc1nc(NCCN2CCCC2)c2sc(-c3ccccc3)cc2n1
-2 | -6 | -3.0 | C[C@@H](NC(=O)C[C@@H]1CC[C@@H]2[C@H](COC[C@@H](O)CN2Cc2cc(F)ccc2F)O1)c1ccccc1
0 | 6 | -2.5 | COc1ccc(CNC[C@H]2O[C@@H](n3ccc(=O)[nH]c3=O)[C@H](O)[C@@H]2O)cc1

By substructure: the compounds so far containing an aryl methoxy group
rRNA inh HTS | rRNA inh HTS OD600 | rRNA inh HTS RFP | canonical_smiles
-6 | -41 | 29 | COc1ccc(NC(=O)Nc2ccc3c(c2)CC(=O)N([C@@H](C)CO)C[C@@H](C)[C@H](CN(C)CC2CCCCC2)O3)cc1
-31 | -67 | -3.8 | COc1cccc(C(C)(O)c2nc(-c3ccc(OC)c(OC)c3)cs2)c1 (stereo unspecified)
4 | 12 | -0.4 | CCC(=O)N1CCC(C)(C(=O)NCc2cccc(OC)c2)C1 (stereo unspecified)
6 | 9 | -2.4 | COCC#Cc1cnc2c(c1)C(=O)N([C@@H](C)CO)C[C@H](C)[C@H](CN(C)C(=O)Nc1ccccc1OC)O2
0 | 6 | -2.5 | COc1ccc(CNC[C@H]2O[C@@H](n3ccc(=O)[nH]c3=O)[C@H](O)[C@@H]2O)cc1

Continuation:
rRNA inh HTS | rRNA inh HTS OD600 | rRNA inh HTS RFP | canonical_smiles
2 | 9 | -1.4 | CCC(=O)N1[C@H](CO)[C@@H]2c3ccccc3N(C(=O)NC(C)C)C[C@@H]21
-4 | -12 | -2.4 | CCc1sc(N2[C@@H](C#N)[C@@H](c3ccccc3-c3cccc(C)c3)[C@@H]2CO)nc1C
-2 | 7 | -0.3 | COCCNC(=O)[C@@H]1[C@@H](CO)[C@@H]2Cn3c(ccc(C4=CCCCC4)c3=O)[C@H]1N2C(=O)C1CCC1
1 | -10 | 0.8 | O=C(c1ccccc1)N1CC(=O)N2[C@H](C1)[C@@H](c1ccc(-c3ccccc3)cc1)[C@@H]2CO
3 | 3 | -1.2 | C[C@@H]1CCCCO[C@@H](CN(C)C(=O)Nc2ccccc2)[C@H](C)CN([C@H](C)CO)C(=O)c2cc(NC(=O)NC3CCCCC3)ccc2O1
-52 | -70 | -12 | CCCC#Cc1ccc2c(c1)O[C@H](CN(C)Cc1ccccn1)[C@H](C)CN([C@@H](C)CO)S2(=O)=O
14 | 12 | 0.4 | COc1ccc(NC(=O)CN(C)C(=O)c2ccc(S(=O)(=O)N3CCOCC3)cc2)cc1
-14 | -38 | -7.7 | O=C(C1CCCCC1)N1CC(=O)N2[C@H](CO)[C@H](c3ccc(-c4ccccc4F)cc3)[C@@H]2C1
2 | 15 | -0.2 | CCC(=O)N1CC2(CN(Cc3cccnc3)C2)c2c(n(C)c3cc(OC)ccc23)[C@H]1CO
1 | 9 | -0.3 | CCCC(=O)Nc1ccc2c(c1)C(=O)N(C)C[C@H](OC)[C@@H](C)CN(C(C)=O)[C@@H](C)CO2
2 | 22 | -0.6 | C[C@H]1CCCCO[C@@H](CN(C)C(=O)NC2CCCCC2)[C@@H](C)CN([C@@H](C)CO)C(=O)c2cc(NC(=O)Nc3ccc(C(F)(F)F)cc3)ccc2O1
-34 | -53 | -4.2 | OC[C@@H]1CN(Cc2ccc(-c3ccccc3)cc2)C[C@H](n2cnc3c(NCc4ccncc4)ncnc32)O1
0 | -2 | -0.7 | O=C(C[C@H]1C[C@H]2c3cc(NC(=O)c4cccnc4)ccc3O[C@H]2[C@@H](CO)O1)NCc1ccccc1F
0 | 10 | -1.8 | CN1C(=O)c2cc(NC(=O)C3CCOCC3)ccc2OC[C@@H]2O[C@@H](CC(=O)NCc3ccccc3F)CC[C@@H]21
6 | 10 | -2.8 | Cc1nc(C(=O)O)cc([N+](=O)[O-])c1C
6 | 15 | -2.6 | CC1(C(=O)Nc2ccc3c(c2)OCO3)CCN1C(=O)CC1CC1 (stereo unspecified)
13 | 16 | -1.9 | CC1=C(C(=O)N2CCCCCC2)CC(CC(=O)NCCN2CCOCC2)C(=O)N1Cc1ccccc1 (stereo unspecified)
5 | 7 | -1.3 | C[C@@H]1CN([C@@H](C)CO)C(=O)c2cc(-c3ccc(F)cc3)cnc2O[C@@H]1CN(C)CC1CC1
-60 | -77 | -12 | O=C(Nc1ccc(F)cc1)N1CCCCN2[C@H](CO)[C@@H](c3ccc(C4=CCCCC4)cc3)[C@H]2C1
3 | 5 | -1.9 | COc1ccc(NC(=O)N(C)C[C@@H]2Oc3ccc(NS(=O)(=O)c4ccc(OC)cc4)cc3CC(=O)N([C@@H](C)CO)C[C@H]2C)cc1
-6 | -5 | 5.1 | Cc1ccc(S(=O)(=O)N(C)C[C@H]2Oc3ncc(-c4ccccc4)cc3C(=O)N([C@H](C)CO)C[C@H]2C)cc1
-2 | 5 | 4.8 | C[C@H](CO)N1C[C@H](C)[C@@H](CN(C)S(=O)(=O)c2cccs2)Oc2ccc(NC(=O)c3ccncc3)cc2CC1=O
-4 | -9 | -1.1 | C[C@H]1CN([C@@H](C)CO)C(=O)c2cc(NC(=O)Cc3cn(C)c4ccccc34)ccc2O[C@H]1CN(C)C(=O)Nc1cccc2ccccc12
8 | -10 | 4.0 | O=C(N[C@H](Cc1ccccc1)C(=O)NCCCN1CCCC1=O)[C@H]1O[C@@H](n2ccc(=O)[nH]c2=O)[C@H](O)[C@@H]1O
-32 | -56 | 14 | O=C(C[C@@H]1CC[C@H](NC(=O)Nc2cc(F)ccc2F)[C@H](CO)O1)NCc1ccc2c(c1)OCO2
2 | 3 | -3.6 | COCC(=O)N1C[C@H](C)[C@H](OC)CN(C)C(=O)c2ccc(NC(=O)c3ccccc3)cc2OC[C@H]1C

Record cards, as listed above. Values in the order: rRNA inh HTS | rRNA inh HTS OD600 | rRNA inh HTS RFP
Results for O=C(C[C@@H]1CC[C@H](NC(=O)Nc2cc(F)ccc2F)[C@H](CO)O1)NCc1ccc2c(c1)OCO2 → -32 | -56 | 14
Results for C[C@H]1CN([C@@H](C)CO)C(=O)c2cc(NC(=O)Cc3cn(C)c4ccccc34)ccc2O[C@H]1CN(C)C(=O)Nc1cccc2ccccc12 → -4 | -9 | -1.1
